TRPV1 PAM – potentiators of human vanilloid receptor 1 (TRPV1); TRPV1-expressing cells, Fluo-8 calcium influx, capsaicin EC20 potentiation; host cell line not named in the record; control for the full effect not named in the record; potentiation, % at 8.33 µM; 320,000 compounds, 0.02% hits; AID 540277; active means potentiation above 80%; inconclusive means 30% to 80%; inactive means below 30%; further: 0% is about no effect
Target sequence (Q8NER1 whole entry, looked up): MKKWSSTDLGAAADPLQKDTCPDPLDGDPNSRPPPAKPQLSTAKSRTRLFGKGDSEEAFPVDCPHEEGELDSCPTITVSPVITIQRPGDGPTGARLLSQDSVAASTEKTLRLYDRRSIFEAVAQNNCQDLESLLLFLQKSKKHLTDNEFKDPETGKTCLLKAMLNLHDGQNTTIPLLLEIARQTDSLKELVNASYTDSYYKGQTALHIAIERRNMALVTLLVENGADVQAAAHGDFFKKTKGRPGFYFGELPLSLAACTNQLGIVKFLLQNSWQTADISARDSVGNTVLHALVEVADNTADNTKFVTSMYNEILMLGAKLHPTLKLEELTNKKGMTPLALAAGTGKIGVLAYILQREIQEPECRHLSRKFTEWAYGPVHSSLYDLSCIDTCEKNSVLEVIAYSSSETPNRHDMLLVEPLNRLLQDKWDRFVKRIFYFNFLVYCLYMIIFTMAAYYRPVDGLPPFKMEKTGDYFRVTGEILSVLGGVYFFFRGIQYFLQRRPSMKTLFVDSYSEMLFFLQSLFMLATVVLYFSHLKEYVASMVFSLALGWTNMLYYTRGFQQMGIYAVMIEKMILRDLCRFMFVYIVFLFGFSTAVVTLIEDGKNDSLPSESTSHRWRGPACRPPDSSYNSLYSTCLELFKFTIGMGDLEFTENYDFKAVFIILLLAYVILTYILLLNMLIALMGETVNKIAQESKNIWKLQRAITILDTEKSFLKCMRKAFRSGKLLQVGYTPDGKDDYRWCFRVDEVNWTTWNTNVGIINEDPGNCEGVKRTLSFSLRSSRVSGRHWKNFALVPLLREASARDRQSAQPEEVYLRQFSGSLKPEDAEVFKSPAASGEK
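Cells expressing TRPV1 were dye-loaded with Fluo-8 and read kinetically: 10 s baseline, 3 min after compound (agonist portion), then 2 min after EC20 capsaicin (allosteric enhancer portion). Calcium-bound dye fluorescence at 480/520 nm.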
ClpP mod – qHTS Assay for Activators of ClpP. purified B. subtilis ClpP, FRET peptide cleavage, 20 min. Potency, µM (series often up to 57.5 µM), for inactives: at the top dose activity change, negative = active. 340,000 compounds, 1.9% hits; active = well fitted falling curve with a large enough effect; inconclusive = small, poorly fitted or top-dose-only effect; inactive = no such curve, though single readings can be large or run the other way; further: potency means the concentration at half of the fitted maximal effect; the source files actives as falling curves though it sought activators and does not explain the sign; nearly all actives have a fitted effect of over 65% in size; many hits overshoot -100%
Target sequence (P80244 whole entry, looked up): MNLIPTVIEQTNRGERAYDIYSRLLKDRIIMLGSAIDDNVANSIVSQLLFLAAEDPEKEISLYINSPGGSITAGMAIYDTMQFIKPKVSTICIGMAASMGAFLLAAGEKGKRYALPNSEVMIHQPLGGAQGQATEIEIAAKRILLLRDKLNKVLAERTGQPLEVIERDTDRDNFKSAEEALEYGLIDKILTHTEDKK
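Purified B. subtilis ClpP, 10 microg/mL final in Tris/HCl pH8 with KCl, BSA, glycerol and Tween-20, cleaved an Abz/nitrotyrosine-quenched decapeptide. Fluorescence (ex 320, em 430) was read at 0 and 20 min at room temperature. Delta was normalized to 5.8 microM ADEP and DMSO/no-enzyme controls.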
TRPML1 ag – agonists of human TRPML1 channel. TRPML1-expressing cells, Ca2+ dye fluorescence, FDSS; host cell line not named in the record; reference of the full effect not given here. activation, % (no concentration beside the values). 410,000 compounds, 0.12% hits. AID 624414; in the data active = activation above about 50%; inconclusive = about 30% to 50%; inactive = below about 30%; further: 0% is about no effect; the text of the record puts the active cut at 80%
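Tetracycline-induced TRPML1-DL cells are seeded and incubated overnight before loading with a no-wash Ca2+ dye and quencher. Agonist activity is taken from the 110 s fluorescence read following compound pin-transfer on an FDSS, before EC80 54-4 challenge.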
Sfp inh – blocks B. subtilis Sfp PPTase activity. Q9F4F7. Biochemical Sfp PPTase activity, qHTS. Potency, µM, for the others: max response, negative = inhibition, hits mostly inhibitors. 310,000 compounds, 3.5% hits. AID 1490; active means well fitted inhibition curve with a large enough effect; inconclusive means small, poorly fitted or top-dose-only effect, or another doubt; inactive means no such curve, though single readings can be large or run the other way;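 further: the enzyme is Sfp with the accession as filed and its product quenches rhodamine fluorescence; potency means the concentration at half of the fitted maximal effect; 0% = enzyme reaction without inhibitor and -100% = no enzyme wells; top concentration of the series not given in the record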
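Fluorescence-quenching assay with 15 nM Sfp, 5 uM rhodamine-CoA and 12.5 uM BHQ-2-labelled ybbR peptide in pH 7.6 Hepes/MgCl2 buffer. Enzyme was pre-incubated with compound for 15 min at room temperature. Rate was taken from the 30-min fluorescence change (525/598 nm).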
PINK1 expr mod – changes PINK1 expression; PINK1 immunofluorescence, high-content cytometry, 24 h; Potency, µM (top dose mostly 76.6 µM), for inactives: at the highest dose activation (PINK1 increase), usual class: activators; 410,000 compounds, 0.2% hits; AID 624263; active = well fitted activation curve with a large enough effect; inconclusive = small, poorly fitted or top-dose-only effect; inactive = flat fitted curve, though single readings scatter; cell line not stated here;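 further: potency means the concentration at half of the fitted maximal effect; % of control where 0% means no effect; nearly all actives have a fitted effect of over 65% in size; a mitochondrial uncoupler was the plate control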
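Compound titrations (5 concentrations, 24 h) on a stable cell line; DMSO and CCCP controls. Endpoint: fixed-cell PINK1 immunofluorescence with mitochondrial, cell and nuclear markers, scanned by microplate cytometer.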
Menin MLL FP FL – menin-MLL binding inhibition, fluorescein peptide; Fluorescence polarization, fluorescein-MLL peptide displacement from menin; FP activity change, % at 61.4 µM; 290,000 tested, under 10 active; inconclusive = falling polarisation curve, or a change in total fluorescence; inactive = total fluorescence flat and polarisation flat or rising; no compound was filed as active; the % refers to the polarisation; negative = inhibition;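 further: % of control where 0% means no effect; inhibitors lower the polarisation; unlabelled MLL peptide was the positive control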
TRPML1 blocker – human mucolipin-1 channel inhibition | Q9GZU1 | TRPML1-inducible cells, Ca2+ dye fluorescence, FDSS; hits give low values; inhibition of EC80 agonist-evoked calcium signal | activity change, negative = inhibition, % (no concentration beside the values) | 390,000 compounds, 0.02% hits; in the data active means activity change below about -50%; inconclusive means about -30% to -50%; inactive means above about -30%;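 further: stimulus is agonist 54-4 at its EC80 concentration; on the % scale 0 is the no-effect control and ±100 the full control effect; compound concentration not given in the record; the text of the record puts the active cut at -80%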
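Tet-induced TRPML1-DL cells loaded with Ca8 no-wash calcium dye were read kinetically on FDSS. Compound addition was followed by EC80 agonist 54-4 (4 uM final); inhibition was read over 110 s.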
Starred values were filed as active, the others as inactive; ? = inconclusive; nt = not tested or not shown; & = joins results of further samples; [ ] = remark or other dose. Outcome played no part in choosing rows, and some 4.4% of all compounds hit somewhere here.

entry	Molecule	ClpP mod	Sfp inh	TRPML1 blocker	PINK1 expr mod	Menin MLL FP FL	TRPV1 PAM	TRPML1 ag
1	CCOC(=O)C1=C(N)N2C(=O)C(C)SC2=C(C(=O)OCC)C1c1ccc(O)cc1 (configuration not stated)	-2.6%	0.2%	-9.3	1.5%	0.5	-8.1	18.5
2	CCOc1ccc(NC(=O)CN(C)S(=O)(=O)c2ccc3c(c2)c(=O)n(C)c(=O)n3C)cc1	-3.4%	nt	5.2	-0.5%	nt	nt	-0.2
3	COc1ccc(-n2ncc3c(NC(C)(C)CO)ncnc32)cc1	-16.0%	nt	32.5	-0.1%	nt	nt	0.2
4	CCOC(=O)Cn1c(=O)c2c(nc3n2CC(C)CN3Cc2ccccc2)n(C)c1=O (configuration not stated)	-1.4%	17.0%	22.0	0.7%	6.1	-18.2	-1.1
5	Cc1nnc(C)c2c(C)n(-c3ccccc3N)c(C)c12	-23.2%	56.2µM*	-1.5	-0.8%	?	9.0	1.2
6	CCOC(=O)c1nc(C)n(-c2cc(Cl)cc(Cl)c2)n1	1.0%	24.0%	3.0	0.4%	1.3	4.7	1.6
7	O=C(Nc1ccc(-c2cscn2)cc1)C1CCCN(Cc2ccc(CO)o2)C1 (configuration not stated)	-3.6%	-2.0%	-11.3	3.2%	nt	8.1	0.1
8	O=C(NCC(=O)N1CCN(c2cccc(Cl)c2)CC1)c1ccc(Br)o1	1.7%	nt	-7.1	0.7%	nt	-2.3	1.8
9	COC(=O)c1ccc(CSc2nc3cc(Cl)ccc3o2)cc1	-0.1%	?	10.3	12.4%[38.3 µM]	7.3	2.7	3.0
10	Cn1c(=O)c2c(nc(NCC3CCCC(CN)C3)n2Cc2ccc(Cl)cc2Cl)n(C)c1=O (configuration not stated)	-0.6%	-7.9%	-12.7	0.0%	4.0	17.2	-0.1
11	CCc1nnc(N/N=C/c2cc(C)c(C)cc2C)n1N	nt	-16.8%	-5.5	-1.1%	0.7	1.9	-0.1
12	Cc1ccc(-n2c(SCC(=O)NCCN3C(=O)CSC3=O)nnc2-c2ccccc2)cc1C	0.5%	11.2%	2.8	-1.4%	1.4	-8.6	-0.6
13	NS(=O)(=O)c1ccc(CNC(=O)c2cc(=O)[nH]c3ccccc23)cc1	nt	12.1%	-13.4	-0.1%	-1.7	5.1	-0.1
14	Cc1cc(NC(=O)Cn2ccc([N+](=O)[O-])n2)no1	nt	1.6%	-12.9	-1.2%	-5.1	-6.7	-0.3
15	CC(=O)NS(=O)(=O)c1ccc(NC(=O)c2ccc(-n3nc(C)cc3C)cc2)cc1	nt	16.6%	21.3	1.4%	-1.6	9.0	1.1
16	CCOC(=O)N1CCN(C(=O)Nc2ccccc2Cl)CC1	4.0%	5.4%	-5.3	-1.0%[38.3 µM]	1.3	?	-0.1
17	CC1CCCN(CCCNC(=O)c2ccc3c(c2)N(Cc2ccc(F)cc2)C(=O)c2ccccc2S3=O)C1 (configuration not stated)	-2.0%	-5.8%	10.8	0.2%	nt	-31.7	2.8
18	Cc1cc(C)c(C(=O)NC2CCCc3c2cnn3-c2cccc(C)c2C)o1 (configuration not stated)	-1.7%	7.4%	54.1	3.9%	nt	12.7	2.8
19	COc1ccc(C(=O)NC(=S)NNC(=O)c2cccnc2)cc1	nt	6.1%	6.8	3.9%	-9.1	8.6	-0.7
20	Cc1ccc(/C=C/C(=O)N2CCC(Cc3ccccc3)CC2)cc1	-1.4%	-15.0%	25.6	3.5%	1.9	-17.6	4.7
21	COc1cccc(N2CCN(C(=O)Cn3cnc4onc(-c5ccc(F)cc5)c4c3=O)CC2)c1	-4.7%	nt	1.5	-4.1%	nt	nt	3.2
22	CCc1ccc(CN(C(=O)c2cc3ccccc3oc2=O)C2CCS(=O)(=O)C2)cc1 (configuration not stated)	-11.3%&-14.6%	15.4%	3.4&-2.2	0.0%&0.9%	-0.5	4.4	0.0&-0.2
23	CCCCNC(=S)N1CCN(C)CC1	nt	10µM*	-16.6	-0.5%	5.8	-24.3	0.1
24	O=C(O)c1cccc(NC(=S)N/N=C/c2cccc(O)c2)c1	nt	-5.3%	3.6	0.2%	4.0	13.4	0.2
25	CCOC(=O)CC1=C(C#N)C(c2cccnc2)C(C(=O)OCC)=C(N)O1 (configuration not stated)	0.7%	-2.9%	12.4	0.8%	-11.6	2.0	-0.7
26	COc1ccc(CCC(=O)Nc2cc3c4c(c2)CCC(=O)N4CCC3)cc1	2.1%	nt	9.7	-0.9%	nt	1.3	-0.4
27	COc1cc2ccccc2cc1C(=O)Nc1ccc2oc(=O)ccc2c1	nt	5.4%	-4.1	8.7%	-3.3	-3.5	-0.5
28	O=C1NC(C(=O)O)=CC(c2cccc(Cl)c2Cl)N1 (configuration not stated)	-0.4%	nt	22.9	0.3%	nt	-1.1	0.0
29	O=C(Cn1nnc(-c2ccccc2NC(=O)c2cccs2)n1)Nc1ccccc1	235.5%	?	21.8	5.3%	2.4	20.2	1.2
30	COc1cc(NC(=O)C2C3CCC(O3)C2C(=O)O)cc(OC)c1 (configuration not stated)	nt	-3.6%	-10.1	13.5%	-0.8	2.7	-0.1
31	O=C(c1cnn2c(C(F)F)cc(-c3ccccc3)nc12)N1CCCCC1c1cccnc1 (configuration not stated)	nt	-6.6%	5.3	-1.7%	-2.0	-3.3	1.0
32	Cc1ccc(Nc2nc(=O)c3cccnc3s2)c(Br)c1	nt	-12.0%	-2.0	-0.1%	0.0	?	2.1
33	CC1(C)C(=O)N(CC(=O)Nc2ccc(Cl)cc2)c2ccccc21	0.1%	nt	0.3	3.0%	nt	nt	0.0
34	c1csc(-c2nnc(N3CCCCCC3)c3ccccc23)c1	nt	?	-2.1	1.8%	5.9	-18.0	0.7
35	CCOc1nc(-c2ccc(C)cc2)ccc1-c1noc(-c2ccccc2F)n1	?	nt	23.5	-1.6%	nt	nt	-0.1
36	CCCCC(=O)Nc1cccn2ncnc12	nt	28.1%	6.0	-0.1%	1.1	?	0.1
37	Cc1cnc(C(=O)OCc2c(C)cc(C(C)(C)C)cc2C)cn1	nt	-9.1%	52.9	9.6%	2.8	-7.4	8.2
38	COc1ccc(OC)c(NS(=O)(=O)c2cccc3cccnc23)c1	nt	-1.8%	-9.1	2.2%	2.8	0.7	3.0
39	CC1(NC(=O)Cc2c(F)cccc2Cl)CCS(=O)(=O)C1 (configuration not stated)	-1.4%	nt	-4.1	2.6%	nt	nt	2.8
40	COC(=O)[C@@H]1C[C@@H]2CC[C@@H](O)C[C@@H]2N1Cc1ccc(N2CCN(C)CC2)cc1	0.6%	21.2%&6.6%	-0.9	0.0%	0.4&4.1	-16.8	-0.6
41	Cc1ccc(C(=O)OCC(=O)Nc2ccc3c(c2)OCO3)cc1S(=O)(=O)N1CCOCC1	-2.1%	4.7%	3.5	-1.1%	-1.7	-0.5	-0.2
42	CCOc1cc(C2C(C(=O)OC)=CN(Cc3ccc(Cl)cc3)C=C2C(=O)OC)ccc1O	4.9%	-2.7%	18.9	2.7%	1.1	0.0	2.0
43	c1ccc2c(c1)CCN(CCCNc1nc3ccccc3n3cnnc13)C2	-4.3%	-14.6%	17.4	1.1%	-0.1	nt	-0.1
44	CCN(C(=O)COC(=O)CCn1c(C)csc1=O)c1c(N)n(Cc2ccccc2)c(=O)[nH]c1=O	-0.2%	nt	28.6	0.3%	nt	3.4	-0.9
45	Cc1ccc(OCCC(=O)OCC(=O)NCc2ccccc2)cc1	nt	nt	-5.8	3.9%	nt	-4.0	2.0
46	COc1ccc(OC)c(S(=O)(=O)N2CCN(C)CC2c2ccccc2)c1 (configuration not stated)	1.7%	nt	8.3	0.1%	nt	nt	-0.3
47	CCCN(CCC)C(=O)c1c2c(nc3ccccc13)C(=O)N(C1CCCCC1)C2	-4.5%	nt	9.7	-0.2%	nt	nt	0.5
48	CCn1c(SCC(=O)N2CCCC2)nc2c(c1=O)SCC2	-0.5%	19.0%	3.6	-1.1%	nt	-1.8	2.7
49	COC(=O)c1c(C)[nH]c(O)c1C=Nc1ccc(C(C)C)cc1	0.6%	2.8%	21.8	-0.1%	11.2	nt	0.3
50	CCn1c(SCC(=O)Nc2ccccc2N2CCCCC2)nc2c1c(=O)n(C)c(=O)n2C	0.4%	?	-5.9	-1.6%[38.3 µM]	5.9	-31.3	3.3

(listing goes on)
entry	Molecule	ClpP mod	Sfp inh	TRPML1 blocker	PINK1 expr mod	Menin MLL FP FL	TRPV1 PAM	TRPML1 ag
51	O=C(Cc1ccc(F)cc1)Nc1cccc(-c2nc3cccnc3s2)c1	8.91µM*	nt	-5.7	4.3%	nt	nt	-0.3
52	Cc1ccc(C(=O)NCCCNC(=O)c2ccccn2)cc1	nt	11.0%	8.7	-0.1%	1.2	-3.8	-0.4
53	O=C(NNC1CC(=O)N(c2ccc3c(c2)OCCO3)C1=O)c1ccc(Cl)cc1 (configuration not stated)	nt	9.0%	14.3	0.5%	4.4	-0.7	0.1
54	CC(=O)NS(=O)(=O)c1ccc2c(c1)C(=O)c1cc(S(=O)(=O)NC(C)=O)ccc1-2	0.2%	14.5%	5.8	-0.7%	-2.2	-13.7	-0.3
55	COc1ccccc1Cn1c(=O)oc2ccc(C)cc21	nt	7.8%	39.7	1.0%	-0.1	4.6	0.1
56	Cc1ccc(C)c(S(=O)(=O)c2cnc(SCC(=O)Nc3ccc(F)cc3F)[nH]c2=O)c1	-2.4%	nt	-7.6	0.0%	nt	nt	0.9
57	CN(C)S(=O)(=O)c1cccc(NC(=O)COC(=O)c2cccc(S(=O)(=O)N3CCc4ccccc4C3)c2)c1	-3.2%	10.2%	-4.6	5.3%	11.0	3.8	1.6
58	COC(=O)C1=C(C)N(c2ccc(C(=O)OC)cc2)C(=O)C1	0.8%	-1.8%	24.0	0.4%	-1.9	11.0	1.0
59	O=C(NC1CCCCCCC1O)c1ccccc1 (configuration not stated)	3.8%	nt	5.3	-1.1%	nt	nt	0.0
60	CCN(C[C@H]1N[C@@](CC)(C(=O)OC)[C@H]2C(=O)N(C)C(=O)[C@@H]12)C(=O)Nc1ccc(F)cc1	0.5%	nt	-15.2	-0.5%	nt	nt	-0.4
61	CCN1CCN(S(=O)(=O)c2ccc(Cl)c(C(=O)N(C)CC(=O)Nc3c(C)cccc3C)c2)CC1	0.0%	nt	2.0	-0.4%	nt	nt	-0.7

Bioassay records (PubChem)
